# Screening data from PubChem.
# ugtP null kill: kills S. aureus RN4220 lacking UgtP; hit rate 0.54% among 330,000; growth inhibition, % (test concentration not listed); S. aureus RN4220 ugtP deletion, OD600 growth, 16 h; some inactives read as strong as hits;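 active = z-score under -3 and OD600 up to 0.15 on both plates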;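 also: plate controls were untreated wells for no effect and antibiotic for full effect; wells of about 80 µL received 100 nL stock; the first replicate is given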
# PrP 5UTR inh: inhibition of PrP 5' UTR reporter expression; cell-based PrP 5' UTR mRNA reporter, plate reader; AID 488862; hit rate 0.35% among 340,000; inhibition, % (test concentration not listed);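 active = every replicate at 50% or more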;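 also: 0 = median of the neutral control wells; tested in H4 reporter cells; numbers are from one replicate; inactives centre near -14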
# Autofluor counter: counter-screen for toxin protease inhibitors: compound fluorescence | compound autofluorescence counterscreen, microsphere flow cytometry; active compounds read high | fluorescence intensity (concentration not given with the values) | hit rate 3.1% among 360,000;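 active = at least 3 SD above the mean of all compounds, about 16000 in these data; inconclusive = too few beads counted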;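 also: 100 nL of 1 mM stock went into each well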
# BJeLR lethal: BJeLR cell viability loss; BJeLR (HRASV12) viability, CellTiter-Glo ATP luminescence, 48 h; reference of the scale not given here; hit rate 0.17% among 300,000; inhibition, % (concentration not given with the values);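 active = replicate mean above 50%; inconclusive = above 50% but judged a plate artefact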;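 also: 50 nL library stock added to about 25 µL; numbers are from one replicate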
# RN4220 kill: kills Staphylococcus aureus RN4220; AID 1259311; hit rate 0.33% among 330,000; S. aureus RN4220 growth, OD600, 16 h; inhibition, % (concentration not given with the values);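 active = z-score of -3 or lower and OD600 up to 0.18 on both plates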;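 also: plate controls were untreated cells for no effect and reference antibiotic for full effect; stock transfer was 100 nL into about 80 µL; one replicate is shown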
# Mtb hypoxia inh: Mtb hypoxia fluorescent reporter inhibition; hit rate 0.1% among 300,000; fluorescence inhibition, % (no concentration beside the values); AID 1159583; M. tuberculosis hypoxia-regulated fluorescent reporter, fluorescence;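 active = 35 to 45% if threefold the growth effect, above 45% if 1.5-fold the growth effect; inactive = the rest, general growth blockers included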;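 also: wells of about 50 µL received 100 nL stock; 0% = vehicle wells and 100% = reference inhibitor wells; whole bacteria with a GFP reporter of the hypoxia response; strong numbers were not always called active; many hits fall short of the cut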
# Mtb hypoxia inh growth: further read-out of Mtb hypoxia inh, marked with its call; growth inhibition, %; measured here: M. tuberculosis growth (absorbance);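 0% = vehicle and 100% = reference antibiotic; read after six days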
# * hit, by the source's call; u = inconclusive; x = not tested or not shown; & = joins results of further samples.
SMILES,ugtP null kill,PrP 5UTR inh,Autofluor counter,BJeLR lethal,RN4220 kill,Mtb hypoxia inh,Mtb hypoxia inh growth
CCOc1ccc(C(=S)N2CCCC2)c(OCC)c1,10,-28,3772,-19,8.2,13,10
COc1ccc(S(=O)(=O)N2CCCCCC2)cc1C(=O)Nc1ccc(C)cn1,8,-15,6205,2,22,8,-7
C[C@H](NC(=O)CCC1CCC(=O)N1)c1ccccc1 (some centres not stated),x,-13,4114,-2,x,x,x
COc1ccc2sc3ccccc3c(=O)c2c1,17,-82,3408,-18,5.1,x,x
O=C(COC(=O)CNC(=O)c1ccccc1)Nc1nc(-c2ccccc2)cs1,-2,-18,2419,3,5.1,5,2
Cc1c(O)c2cccnc2[nH]c1=O,5,3,2031,7,6.5,7,8
CCCn1c(=O)c(C(=O)NC(C)c2ccccc2)c(O)c2ccccc21 (configuration not stated),15,-22,3943,0,-3.2,10,5
O=C(c1ccccc1)c1ccccc1C(=O)N1CCCC1,2,-4,7822,-8,3.3,0,-2
Cc1cc(C)cc(N(CCC#N)C(=O)COC(=O)CNC(=O)c2sc3ccccc3c2Cl)c1,1,-15,6656,-9,3.1,2,0
CC(=NNC(=S)NCCc1ccccc1)c1cccc(Br)c1,23,x,x,x,9.0,-7,5
C/C(CC(=O)Nc1cc(Cl)ccc1C)=N\NC(=O)C(=O)N1CCCC1,x,-10,5615,-8,x,x,x
O=C(Cn1ccccc1=O)c1ccc(Cl)cc1,-1,-16,4959,-1,4.1,8,5
COC(=O)c1cccc(NC(=O)Nc2ccc(Cl)cc2)c1,-18,-32,4244,7,-2.1,-10,-7
COCCN(C(=S)Nc1ccc(OC)cc1)C1CCN(C(C)=O)CC1,6,-9,2518,-8,3.9,2,5
O=C(OCC1OC2OC3(CCCCC3)OC2C2OC3(CCCCC3)OC12)c1ccccc1 (configuration not stated),32,-9&-21,2421,2,-10,-3,2
CS(=O)(=O)NCCCCCCNS(C)(=O)=O,7,-27,4385,0,8.5,11,4
ClC1(Cl)CC1CSc1nnc(-c2ccncc2)o1 (configuration not stated),7,-7,3405,1,1.8,x,x
COC(=O)c1ccc(C(=O)OC)c(NS(=O)(=O)c2ccc(NC(C)=O)cc2)c1,1,-27,9843,-1,-1.7,13,6
Cc1ccc(NC(=S)N2CCN(c3ncccn3)CC2)c(C)c1,-6,-7,8887,3,-4.4,-5,-6
Cc1cc(Nc2cccc(Cl)c2Cl)n2ncnc2n1,-13,-9,3620,7,-0.5,-7,4
Cc1[nH][nH]c(=O)c1C(c1cc([N+](=O)[O-])ccc1O)c1c(C)[nH][nH]c1=O,25,-29,2095,16,62,0,6
Cn1nc(C(=O)NCCc2ccc(S(N)(=O)=O)cc2)c2ccccc2c1=O,8,-7,4867,-7,4.1,-3,-2
O=C(COC(=O)c1cncc(Br)c1)NC1CCCCC1,9,-29,4714,x,1.1,7,1
COc1ccc2nc(N3C(=O)C(O)=C(C(=O)c4ccco4)C3c3ccccc3OC)sc2c1 (configuration not stated),29,-16,5970,24,25,-8,-4
CC(C)c1c(C(=O)N/N=C/c2ccoc2)nnn1-c1nonc1N,x,5,5520,-8,x,x,x
SMILES,ugtP null kill,PrP 5UTR inh,Autofluor counter,BJeLR lethal,RN4220 kill,Mtb hypoxia inh,Mtb hypoxia inh growth
COc1ccccc1C(=O)NCC(c1ccco1)N1CCc2ccccc21 (configuration not stated),4,-11,x,-3,3.0,5,1
c1ccc(-n2nnnc2NC2CCCCCC2)cc1,-10,-41,10622,5,4.3,0,6
Cc1nn(C)c(C(=O)Nc2ccc(Cn3cccn3)cc2)c1[N+](=O)[O-],0,x,11197,-2,4.7,2,6
O=C1/C(=C/c2ccncc2)SC(=S)N1Cc1ccccc1,-11,-3,5823,-8,4.4,19,1
CS(=O)(=O)c1nc2ccccc2n1Cc1ccccc1,5,-12,23807*,-22,2.9,3,6
O=S(=O)(Cc1ccccc1)Cc1cnc(Cl)s1,5,7,3183,8,4.6,17,5
Cc1ccc(S(=O)(=O)NNC(=O)c2ccncc2)cc1,5,-22,2565,4,3.0,7,6
CCOc1ccc(C=NNC(=O)c2nnn(-c3nonc3N)c2CN(C)C2CCCCC2)cc1,4,x,x,x,3.1,1,-2
CCN(CC)S(=O)(=O)c1ccc(C(=O)NNC(=O)c2csc(N3CCOCC3)n2)cc1,2,-26,5173,3,0.4,-2,2
COc1cc(C=Nn2nnnc2Nc2ccccc2)cc(OC)c1OC,9,x,x,x,4.7,8,-2
COC(=O)c1ccccc1NC(=O)Nc1cc(C)ccn1,9,-11,2026,-3,2.3,0,-1
CCN1CCN(C(=S)Nc2ccc(Cl)c(Cl)c2)CC1,6,-29,2442,7,0.5,8,1
COc1ccc(NC(=O)COC(=O)c2ccc(OCc3ccc(Cl)cc3Cl)c(OC)c2)c(OC)c1,-7,-23,2159,3,6.8,7,11
O=C(c1ccco1)N1CCN(S(=O)(=O)c2ccc(Cl)cc2)CC1,6,-40,3746,-11,0.6,4,-2
COc1cc(/C=C/C(=O)OC(C)C(=O)Nc2ccc(Cl)cn2)ccc1OC(F)F (configuration not stated),4,-18,3417,x,0.4,2,-1
O=C(NC(C(=O)c1ccccc1)c1ccccc1)c1ccccc1 (configuration not stated),8,-22,3442,x,2.7,5,2
Cc1ccc(C(=O)OCC(=O)NC2CCCC2)cc1,8,-11,3604,-9,4.4,1,-3
CN1CCCc2cc(C#N)c(=O)[nH]c21,-3,-30,10218,12,3.7,11,4
COc1ccc(N(CC(=O)NCc2ccc(C)cc2)S(=O)(=O)c2c(C)nn(C)c2C)cc1,6,-45,2398,-5,6.1,5,4
CCN(CC)C(=O)/C(=C\c1ccncc1)NC(=O)c1ccccc1,5,-10,2643,-5,4.2,6,8
O=C1CC(c2ccccc2)Cc2nc(N3CCc4ccccc43)ncc21 (configuration not stated),1,-35,11065,-4,-0.8,8,3
CCN(CC(=O)NCc1cccs1)S(=O)(=O)c1ccc(NC(C)=O)cc1,6,-20,4567,2,4.8,4,-1
CC1CCN(CC(=O)c2ccccc2Cl)CC1,1,-46,6729,21,1.7,5,7
O=C(Nc1ccccc1)c1nc[nH]c1C(=O)NCCCNC(=O)c1[nH]cnc1C(=O)Nc1ccccc1,-25,-12,4528,x,1.6,4,10
CCN(CCNc1ccc(Cl)cc1[N+](=O)[O-])C(=O)c1cc([N+](=O)[O-])c(N(C)C)cc1OC,1,-39,10133,1,5.1,14,5
SMILES,ugtP null kill,PrP 5UTR inh,Autofluor counter,BJeLR lethal,RN4220 kill,Mtb hypoxia inh,Mtb hypoxia inh growth
O=C(OCCCCN1C(=O)c2ccccc2C1=O)c1ccc(Br)o1,10,-15,6999,-13,6.3,4,-3
COC(=O)c1ccccc1NC(=S)N(Cc1ccc2c(c1)OCO2)Cc1cc2ccc(C)cc2[nH]c1=O,-23,3,2413,-16,44,8,1
Cc1ccccc1S(=O)(=O)/N=C(/c1ccccc1)N1CCOCC1,x,-24,4413,9,x,x,x
Nc1cccc(C#Cc2ccc3c(=O)c4ccccc4oc3c2)c1,-21,-67,3571,x,-0.3,11,5
COc1ccccc1C1CC(c2c(-c3ccccc3)c3cc(Cl)ccc3[nH]c2=O)=NN1S(C)(=O)=O (configuration not stated),-11,-5,5379,x,-6.8,-8,4
CCOC(=O)c1ccc(N(C(=O)c2ccco2)C(C(=O)NC2CCCCC2)c2ccncc2)cc1 (configuration not stated),8,-3,3729,5,0.3,-7,6
COC(=O)c1cc2occc2n1CC(=O)Nc1ccc(OC)c(OC)c1,-4,0,4199,-8,5.0,2,5
COc1ccc(/C=C/C(=O)NC2CCCCC2C)cc1 (configuration not stated),-2,-23,3625,-10,2.1,-4,2
O=C(Nc1ccc(Cl)cc1)C1CC2CCCC(C1)C2=O (configuration not stated),5,-21,13888,-11,2.4,-3,9
O=C(NCCC1=CCCCC1)C(=O)NCC1OCCCN1S(=O)(=O)c1cc(F)ccc1F (configuration not stated),3,-21,2273,13,2.4,-17,19
CCc1c(C(=O)NN=Cc2ccc(OCc3ccc(F)cc3)c(OC)c2)nnn1-c1nonc1N,-4,x,x,x,18,0,13
CCCNC(=O)CCCCn1c(=S)[nH]c2c([nH]c3ccc(OC)cc32)c1=O,6,-12,4144,-8,0.0,4,4
C[C@]1(C(=O)NCc2cc(F)cc(C(F)(F)F)c2)C=C[C@@H](Cc2ccccc2)N1C(=O)c1ccccc1,x,-13,3172,0,x,x,x
COCC=CC1=CC2=CC(=O)C(C)(OC(=O)c3cnc4ccccc4n3)C(=O)C2=CN1c1ccc(OC)cc1 (configuration not stated),-7,x,x,x,9.9,-1,-2
Cc1ccc(CNS(=O)(=O)c2cc3c4c(c2)C(C)C(=O)N4CCC3)cc1 (configuration not stated),5,-30,5490,6,6.7,8,5
CC1=CC2=NC(=O)/C(=C/c3cccs3)C(=N)N2O1,6,-14,3313,-5,1.5,-1,-9
Cc1ccc2oc(=O)n(Cc3ccc(F)cc3)c2c1,13,-96,3415,1,1.8,15,9
COC(=O)c1c(NC(=O)C(C)C)sc(C(=O)N2CCOCC2)c1C,5,-12,5418,-5,2.3,-3,-5
O=C(O)c1cccc2c1-c1ccccc1C2=NNc1ccccc1,-2,x,x,x,3.9,1,-10
COC(=O)[C@@]1(C)[C@H]2C(=O)N(Cc3ccccc3)C(=O)[C@H]2[C@H]2CN=C(SCc3ccc(C#N)cc3)N21,0,-26,4095,x,2.6,-5,7
CC(C)[C@@H](C(=O)N1CCNCC1)n1cc(CCO)nn1,x,-6,3561,-8,x,x,x
O=C(COc1ccc(Cl)cc1)NNC(=O)c1ccc2c(=O)n3c(nc2c1)CCC3,3,-32,u,-1,2.5,3,4
O=C(Nc1ccc(N2CCOCC2)c(Cl)c1)c1ccc(Cl)cc1,1,-23,4782,0,-1.6,-1,2
Cc1ccc(-c2nn[nH]n2)o1,-3,-26,5323,2,3.0,-8,5
Cc1ccc(-c2nnc(N(C)C(=O)c3cccnc3)s2)cn1,5,-2,3572,-1,-3.4,x,x

# 3 entries already listed, arranged by heavy-atom count, lowest first:
SMILES,ugtP null kill,PrP 5UTR inh,Autofluor counter,BJeLR lethal,RN4220 kill,Mtb hypoxia inh,Mtb hypoxia inh growth
O=C(O)c1cccc2c1-c1ccccc1C2=NNc1ccccc1,-2,x,x,x,3.9,1,-10
COC(=O)c1cc2occc2n1CC(=O)Nc1ccc(OC)c(OC)c1,-4,0,4199,-8,5.0,2,5
COc1ccccc1C1CC(c2c(-c3ccccc3)c3cc(Cl)ccc3[nH]c2=O)=NN1S(C)(=O)=O (configuration not stated),-11,-5,5379,x,-6.8,-8,4

# Other compounds.
SMILES,ugtP null kill,PrP 5UTR inh,Autofluor counter,BJeLR lethal,RN4220 kill,Mtb hypoxia inh,Mtb hypoxia inh growth
Cc1ccccc1CN1CCN(CC(=O)NCc2ccccc2)C1=O,2,-22,20841*,-1,6.0,2,5
O=C1NC(c2ccccc2)Oc2ccccc21 (configuration not stated),8,-27,3319,-2,4.6,8,3
CC(C)NC(=O)COC(=O)c1cncc(Br)c1,0,-24,3936,2,1.5,-7,4
O=C(NCC1CCCO1)C(=O)NCC(c1ccco1)N1CCN(c2ccccc2)CC1 (configuration not stated),5,-41,10886,-20,3.6,13,1
Cc1cc(C)c(C(=O)C(C)OC(=O)C2=COCCO2)cc1C (configuration not stated),1,-5,5353,2,2.3,3,2
Cc1[nH]n(-c2ccccc2)c(=O)c1C(c1ccc(O)c([N+](=O)[O-])c1)c1c(C)[nH]n(-c2ccccc2)c1=O,1,-9,4215,1,1.5,x,x
COc1ccc2[nH]c3c(=O)n(CCCCCC(=O)NCCC(C)C)c(=S)[nH]c3c2c1,3,-14,4318,8,3.8,-1,6
CC(C)CN(CCNC(=O)CC1Oc2ccccc2NC1=O)CC(C)C (configuration not stated),9,-19,4929,8,3.9,x,x

# In the list so far, these have fluorine.
SMILES,ugtP null kill,PrP 5UTR inh,Autofluor counter,BJeLR lethal,RN4220 kill,Mtb hypoxia inh,Mtb hypoxia inh growth
COc1cc(/C=C/C(=O)OC(C)C(=O)Nc2ccc(Cl)cn2)ccc1OC(F)F (configuration not stated),4,-18,3417,x,0.4,2,-1
O=C(NCCC1=CCCCC1)C(=O)NCC1OCCCN1S(=O)(=O)c1cc(F)ccc1F (configuration not stated),3,-21,2273,13,2.4,-17,19
CCc1c(C(=O)NN=Cc2ccc(OCc3ccc(F)cc3)c(OC)c2)nnn1-c1nonc1N,-4,x,x,x,18,0,13
C[C@]1(C(=O)NCc2cc(F)cc(C(F)(F)F)c2)C=C[C@@H](Cc2ccccc2)N1C(=O)c1ccccc1,x,-13,3172,0,x,x,x
Cc1ccc2oc(=O)n(Cc3ccc(F)cc3)c2c1,13,-96,3415,1,1.8,15,9

# Rows are unselected. Share with any hit: about 4.1%.
